Screening results deposited in PubChem by Broad Institute.
Vaccinia stage = blocks a specific stage of Vaccinia orthopoxvirus infection, primary screen, cell-based, single point; Vaccinia-infected cells, mCherry/Venus stage reporter fluorescence; active compounds read low; some inactives read as strong as hits; activity change (mCherry), % (concentration not given with the values); 0.01% of 89,000 active;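 active means mCherry past -33% and 40 or more points under the early reporter, replicates agreeing; inconclusive means past -33% without that gap or agreement; tested in A549 cells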;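 further: scaled between vehicle wells and reference inhibitor wells; 23 nL library stock went into each well; one replicate is shown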
Vaccinia stage Venus = also measured in Vaccinia stage; calls as there; activity change (Venus), %; measured here: Venus reporter, other viral stage;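 negative = less Venus signal; first of two replicates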
* = called active by the depositor; u = inconclusive; x = no result given; & = joins results of further samples. Only part of the results is shown; count on the stated rates, not on these rows.

SMILES	Vaccinia stage	Vaccinia stage Venus
N#C[C@H]1[C@H](c2ccc(C3=CCCCC3)cc2)[C@@H](CO)N1C(=O)NC1CCCCC1	u	x
CN1C(=O)c2cc(NC(=O)c3ccccc3)ccc2OC[C@H]2O[C@@H](CC(=O)NC3CCCC3)CC[C@@H]21	22	11
C[C@H](CO)N1C[C@H](C)[C@H](CN(C)C(=O)Nc2ccc(F)cc2)Oc2ccc(NC(=O)Nc3ccccc3)cc2CC1=O	8	15
CCC(=O)N1C[C@H](O)COC[C@@H]2O[C@H](CC(=O)NCc3ccc(Oc4ccccc4)cc3)CC[C@H]21	0	7
C[C@H]1CN([C@@H](C)CO)C(=O)c2cc(/C=C/c3ccccc3)cnc2O[C@@H]1CN(C)Cc1ccc2c(c1)OCO2	-24	-25
C[C@@H]1CCCCO[C@@H](CN(C)C(=O)CCC(F)(F)F)[C@@H](C)CN([C@@H](C)CO)C(=O)c2cc(NC(=O)C3CCCCC3)ccc2O1	-3	1
C[C@@H]1CN([C@H](C)CO)C(=O)Cc2cc(NS(=O)(=O)c3ccc(Cl)cc3)ccc2O[C@@H]1CN(C)S(=O)(=O)c1ccc(Cl)cc1	-11	-4
C[C@@H]1CN([C@H](C)CO)C(=O)Cc2cc(NC(=O)C3CCCCC3)ccc2O[C@@H]1CN(C)C(=O)Nc1cccc2ccccc12	17	17
Cc1cccc(S(=O)(=O)N2CCCCN3[C@H](CO)[C@H](c4ccc(C#C[C@@H](C)O)cc4)[C@H]3C2)c1	-20	-18
CC(=O)N(C)C[C@@H]1Oc2ncc(C#CCc3ccccc3)cc2C(=O)N([C@H](C)CO)C[C@@H]1C	6	6
C[C@@H]1CN([C@@H](C)CO)C(=O)c2cc(C#CC3CCCCC3)cnc2O[C@@H]1CN(C)S(C)(=O)=O	-24	-22
CO[C@H]1CN(C)C(=O)c2cc(NC(=O)C3CC3)ccc2OC[C@@H](C)N(C(=O)Cc2ccccn2)C[C@@H]1C	17	10
Cc1ccc(S(=O)(=O)N(C)C[C@@H]2Oc3ccc(NC(=O)C4CC4)cc3C(=O)N([C@H](C)CO)C[C@@H]2C)cc1	-11	-6
C[C@@H]1CCCCO[C@H](CN(C)C(=O)Nc2cccc3ccccc23)[C@H](C)CN([C@@H](C)CO)C(=O)c2cc(NC(=O)Nc3cccc4ccccc34)ccc2O1	26	14
C[C@@H]1CN([C@H](C)CO)C(=O)c2cc(N(C)C)ccc2O[C@@H](C)CCCCO[C@@H]1CN(C)C(=O)Nc1ccc(C(F)(F)F)cc1	-16	-5
CNC[C@H]1OCCCC[C@@H](C)Oc2ccc(NC(=O)Nc3cccc4ccccc34)cc2C(=O)N([C@H](C)CO)C[C@H]1C	24	32
C/C=C/c1ccc2c(c1)O[C@H](CN(C)C(=O)NC1CCCCC1)[C@@H](C)CN([C@@H](C)CO)S2(=O)=O	-18	-16
CC(C)NC(=O)Nc1cccc2c1O[C@@H](CN(C)C(=O)NC1CCCCC1)[C@@H](C)CN([C@@H](C)CO)C2=O	u	x
CCCc1cn([C@H]2C[C@@H]3O[C@H](CO)CC[C@@H]3O[C@@H]2CCc2ccc(-c3ccc(OC)cc3)cc2)nn1	29	7
C[C@H](CO)N1C[C@H](C)[C@@H](CN(C)CC2CC2)Oc2c(NC(=O)c3ccncc3)cccc2C1=O	35	15
O=C1N(CCS(=O)(=O)c2ccccc2)Cc2ccccc2C[C@]12N=C(c1ccc(OCCCO)cc1)O[C@@H]2c1ccccc1	u	x
COc1ccc(CN(C)C[C@@H]2Oc3ccc(NC(=O)Cc4cn(C)c5ccccc45)cc3C(=O)N([C@H](C)CO)C[C@@H]2C)cc1	-15	-15
C[C@@H]1CN([C@@H](C)CO)C(=O)c2cc(NS(C)(=O)=O)ccc2O[C@H]1CN(C)Cc1ccncc1	11	5
C[C@H](CO)N1C[C@H](C)[C@H](CN(C)C)Oc2ccc(N(C)C)cc2CC1=O	5	3
C[C@@H]1CN([C@H](C)CO)C(=O)Cc2cc(NS(=O)(=O)c3cccs3)ccc2O[C@@H]1CN(C)CC1CC1	7	5

Shown with each value named: part of the list above.
> CC(=O)N(C)C[C@@H]1Oc2ncc(C#CCc3ccccc3)cc2C(=O)N([C@H](C)CO)C[C@@H]1C
  Vaccinia stage = 6
  Vaccinia stage Venus = 6

> CC(C)NC(=O)Nc1cccc2c1O[C@@H](CN(C)C(=O)NC1CCCCC1)[C@@H](C)CN([C@@H](C)CO)C2=O
  Vaccinia stage = u
  Vaccinia stage Venus = x

> C[C@@H]1CCCCO[C@@H](CN(C)C(=O)CCC(F)(F)F)[C@@H](C)CN([C@@H](C)CO)C(=O)c2cc(NC(=O)C3CCCCC3)ccc2O1
  Vaccinia stage = -3
  Vaccinia stage Venus = 1

> C[C@H](CO)N1C[C@H](C)[C@H](CN(C)C)Oc2ccc(N(C)C)cc2CC1=O
  Vaccinia stage = 5
  Vaccinia stage Venus = 3

Returning to the listing, starting two compounds before the break.
SMILES	Vaccinia stage	Vaccinia stage Venus
C[C@H](CO)N1C[C@H](C)[C@H](CN(C)C)Oc2ccc(N(C)C)cc2CC1=O	5	3
C[C@@H]1CN([C@H](C)CO)C(=O)Cc2cc(NS(=O)(=O)c3cccs3)ccc2O[C@@H]1CN(C)CC1CC1	7	5
COCc1cn(CC[C@@H]2CC[C@@H](NC(=O)c3ccccc3)[C@H](CO)O2)nn1	12	0
CC(C)NC(=O)N(C)C[C@H]1Oc2c(NC(=O)c3nc4ccccc4s3)cccc2C(=O)N([C@H](C)CO)C[C@@H]1C	18	12
COc1ccc(NC(=O)N(C)C[C@@H]2Oc3ccc(NC(=O)C4CC4)cc3C(=O)N([C@@H](C)CO)C[C@H]2C)cc1	1	-3
CO[C@@H]1CN(C)C(=O)c2cc(NC(=O)c3ccc4c(c3)OCO4)ccc2OC[C@@H](C)N(CCC(F)(F)F)C[C@@H]1C	-16	-16
CN1C(=O)c2cc(NC(=O)Nc3ccccc3)ccc2OC[C@H]2O[C@H](CC(=O)NC3CCC3)CC[C@@H]21	-1	2
COc1ccc(NC(=O)N(C)C[C@H]2Oc3ccc(NC(=O)CCCCCC(=O)Nc4ccccc4N)cc3CC(=O)N([C@H](C)CO)C[C@@H]2C)cc1	12	11
COCC(=O)N1CC2(C1)[C@@H](c1ccc(-c3ccc(F)cc3)cc1)[C@@H](CO)N2C(C)=O	5	9
C[C@H]1CN([C@@H](C)CO)C(=O)Cc2cc(NS(=O)(=O)c3ccccc3)ccc2O[C@@H]1CN(C)CC1CCCCC1	u	x
CC(C)NC(=O)N(C)C[C@H]1Oc2ccc(NC(=O)Nc3ccc(F)cc3)cc2C(=O)N([C@@H](C)CO)C[C@@H]1C	10	0
CCCC#Cc1ccc([C@@H]2[C@H]3CN(C(=O)Nc4ccc(F)cc4)CC(=O)N3[C@H]2CO)cc1	1	3
CC(C)CC#Cc1ccc2c(c1)O[C@@H](CN(C)C)[C@H](C)CN([C@@H](C)CO)S2(=O)=O	u	x
COc1ccc(CN(C)C[C@@H]2OCCCC[C@H](C)Oc3ccc(NC(=O)NC4CCCCC4)cc3C(=O)N([C@H](C)CO)C[C@@H]2C)cc1	u	x
COCC(=O)N1[C@H](CO)[C@H](c2ccc(-c3cccc(OC)c3)cc2)C12CN(C(C)=O)C2	-6	-1
C[C@@H]1CN([C@@H](C)CO)C(=O)c2cc(NC(=O)Nc3ccc(C(F)(F)F)cc3)ccc2O[C@@H](C)CCCCO[C@H]1CN(C)Cc1ccc2c(c1)OCO2	u	x
OC[C@@H]1[C@H](c2ccc(C#Cc3ccccc3F)cc2)[C@@H]2CN(Cc3cncnc3)CCCCN12	-10	-19
O=C(CCN1CCCCC1)NCC[C@H]1CC[C@@H](NS(=O)(=O)c2cccc(F)c2)[C@@H](CO)O1	-12	-7
COCC#Cc1ccc2c(c1)O[C@@H](CN(C)C(=O)C1CCCCC1)[C@H](C)CN([C@H](C)CO)S2(=O)=O	-12	-3
C[C@H]1CN([C@@H](C)CO)C(=O)c2cccc(NC(=O)c3ccncc3)c2O[C@@H]1CN(C)C(=O)Nc1ccc(C(F)(F)F)cc1	14	3
C[C@@H]1CN([C@H](C)CO)C(=O)CCCn2nncc2CO[C@H]1CN(C)C(=O)Nc1ccc(N2CCN(C)CC2)cc1	13	8
COc1ccc(CN(C)C[C@H]2Oc3c(NC(=O)Nc4ccc(C(F)(F)F)cc4)cccc3C(=O)N([C@@H](C)CO)C[C@H]2C)cc1	-28	-20
CCCC#Cc1cnc2c(c1)C(=O)N([C@H](C)CO)C[C@@H](C)[C@H](CN(C)Cc1ccccc1F)O2	-18	-16
C[C@@H]1CCCCO[C@H](CN(C)C(=O)Nc2ccc3c(c2)OCO3)[C@H](C)CN([C@@H](C)CO)C(=O)c2cc(NS(=O)(=O)c3cn(C)cn3)ccc2O1	3	9
CCC(=O)N1C[C@H](C)[C@@H](OC)CN(C)C(=O)c2ccc(NC(=O)C3CC3)cc2OC[C@@H]1C	30	6
NC(=O)NCC#Cc1ccc2c(c1)[C@]1(C(=O)N2)[C@H](C(=O)O)[C@H]2C(=O)O[C@H](c3ccccc3)[C@H](c3ccccc3)N2[C@@H]1c1ccc(OCCO)cc1	11	7
CN(C)C(=O)C[C@@H]1C=C[C@@H](NC(=O)C2CCOCC2)[C@@H](CO)O1	6	6
Remaining list, next part
SMILES	Vaccinia stage	Vaccinia stage Venus
COc1ccc(S(=O)(=O)Nc2ccc3c(c2)C(=O)N([C@@H](C)CO)C[C@@H](C)[C@@H](CN(C)S(=O)(=O)c2c(C)noc2C)OCCCC[C@@H](C)O3)cc1	u	x
O=C(c1ccncc1)N1CC2(C1)[C@H](c1ccccc1)[C@@H](CO)N2C(=O)c1ccncc1	4	-2
COc1cccc(C(=O)N2C[C@H]3[C@@H](c4ccccc42)[C@@H](CO)N3C(=O)c2ccccc2)c1	-10	3
Cn1cnc(S(=O)(=O)N[C@@H]2C=C[C@@H](CC(=O)NCC3CC3)O[C@@H]2CO)c1	2	2
CO[C@H]1CC[C@H]2CCOc3c(C#N)cccc3C(=O)N(C)CC3(CCCCC3)CC(=O)N(C)C[C@@H]1O2	2	0
O=C(NC1CCCCC1)N1CC(=O)N2[C@@H](CO)[C@H](c3ccc(/C=C/c4ccccc4)cc3)[C@@H]2C1	u	x
CCCC(=O)Nc1ccc2c(c1)C(=O)N(C)C[C@H](OC)[C@H](C)CN(CCC)[C@H](C)CO2	-7	-2
COc1ccc2c3c([nH]c2c1)[C@@H](CO)N(C(=O)C1CCC1)CC31CCN(C(=O)c2ccccn2)CC1	5	0
O=C(NCC[C@@H]1CC[C@@H](NC(=O)c2cnccn2)[C@H](CO)O1)Nc1ccc(F)cc1	7	2
O=C(NCC[C@H]1CC[C@H](NC(=O)c2cccnc2)[C@@H](CO)O1)Nc1ccc(Cl)cc1	-1	10
C[C@@H]1CN([C@@H](C)CO)C(=O)c2cc(C3=CCCCC3)cnc2O[C@H]1CN(C)C(=O)NC1CCCC1	-17	-13
COc1ccc(S(=O)(=O)N[C@H]2CC[C@H](CCNC(=O)c3ccccc3F)O[C@@H]2CO)cc1	-6	4
C[C@H](CO)N1C[C@H](C)[C@H](CN(C)C(=O)Nc2ccccc2)Oc2ncc(C#Cc3ccc(C(F)(F)F)cc3)cc2C1=O	u	x
C[C@H](CO)N1C[C@H](C)[C@@H](CN(C)CC2CCCCC2)Oc2ccc(NC(=O)Nc3cccc4ccccc34)cc2CC1=O	-27	-15
C[C@@H]1CN([C@@H](C)CO)C(=O)c2cc(-c3ccccc3F)cnc2O[C@@H]1CN(C)C(=O)c1ccccn1	4	8
O=C(C[C@H]1CC[C@@H]2[C@H](COC[C@H](O)CN2Cc2ccc(Oc3ccccc3)cc2)O1)N1CCOCC1	u	x
Cc1noc(C)c1S(=O)(=O)Nc1ccc2c(c1)C(=O)N([C@@H](C)CO)C[C@@H](C)[C@@H](CN(C)S(C)(=O)=O)O2	1	6
C[C@@H]1CCCCO[C@@H](CN(C)Cc2ccc3c(c2)OCO3)[C@@H](C)CN([C@H](C)CO)C(=O)c2cc(N(C)C)ccc2O1	3&-6	2&-15
CCCNC(=O)N(C)C[C@@H]1Oc2cc(C#CC3CC3)ccc2S(=O)(=O)N([C@@H](C)CO)C[C@@H]1C	-21	-17
COc1ccc(S(=O)(=O)N2C[C@H](O)COC[C@H]3O[C@@H](CC(=O)NCCN4CCCCC4)CC[C@@H]32)cc1	8	0
C[C@H](CO)N1C[C@H](C)[C@@H](CN(C)C(=O)Nc2ccccc2F)Oc2cc(-c3ccc(F)cc3)ccc2S1(=O)=O	-27	-21
Cc1ccccc1-c1ccc2c(c1)O[C@H](CN(C)C)[C@@H](C)CN([C@@H](C)CO)S2(=O)=O	-31	-14
O=C(CC(F)(F)F)N1C[C@H]2[C@@H](c3ccccc31)[C@H](CO)N2C(=O)C1CC1	6	-1
C[C@H](CO)N1C[C@H](C)[C@H](CN(C)C(=O)Nc2ccccc2)Oc2c(NC(=O)Nc3ccc(F)cc3)cccc2C1=O	-18	-13
Cc1noc(C)c1S(=O)(=O)Nc1ccc2c(c1)C(=O)N([C@H](C)CO)C[C@H](C)[C@H](CN(C)C(=O)Nc1ccc3c(c1)OCO3)OCCCC[C@@H](C)O2	7	8
OC[C@H]1[C@@H](c2ccc(C#Cc3cccnc3)cc2)[C@H]2CN(Cc3ccccc3F)CCCCN21	-12	-38
C[C@@H]1CN([C@H](C)CO)S(=O)(=O)c2ccc(C#Cc3ccccc3F)cc2O[C@@H]1CN(C)C(=O)Cc1ccccc1	u	x
O=C1CN(Cc2ccc(F)cc2)C[C@H]2[C@H](c3ccc(-c4ccccc4F)cc3)[C@H](CO)N12	1	-6
C[C@H](CO)N1C[C@H](C)[C@H](CN(C)Cc2ccc3c(c2)OCCO3)OCc2cn(nn2)CCCC1=O	4	12
